Choline anaer gr = blocks anaerobic gram-negative growth on choline | calls only | Gram-negative bacterium anaerobic choline minimal medium, absorbance growth; hits give low values; many inactives read as strong as hits in the columns shown | 55,000 tested, 0.2% active | AID 1963822;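 active means growth z-score on choline under -2 at 7 or 20 h with little or no fall on glycerol, limits in tiers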;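 further: stock transfer was 300 nL into about 50 µL; the organism is E. coli; final concentration not given here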
Choline anaer gr early = recorded beside Choline anaer gr, whose call it bears; z-score; measured here: choline growth z-score, timepoint 1;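 score of optical density at 7 h as mean of two plates; lower means less growth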
The depositor's hits bear a star; i = inactive; + = active, no number; & = joins results of further samples.

Sample of the layout:
Choline anaer gr early | Choline anaer gr | Structure
0.28 | i | Nc1nc(N2CCC3(CC2)OCCO3)ncc1S(=O)(=O)c1ccc(Cl)cc1
1.3 | i | CC(C)C(=O)Nc1ccc2c(c1)C(=O)Nc1ccccc1O2
-0.22 | i | CCOC(=O)c1c(S(=O)(=O)N2CCC(C(=O)Nc3ccc(F)c(F)c3)CC2)c(C)n(C)c1C
-0.88 | i | O=C(CSc1nnc2ccc(C(=O)Nc3cccc(F)c3)cn12)Nc1cccc(Br)c1
-1.5 | i | CC(C)(C)C(=O)Nc1nc(-c2ccccc2)cc(-c2ccccc2)n1
0.69 | i | Cc1cccc(C(=O)Nc2ccccc2SCc2nnc(-c3ccccc3)o2)c1

Results (from the top)
Choline anaer gr early | Choline anaer gr | Structure
0.28 | i | Nc1nc(N2CCC3(CC2)OCCO3)ncc1S(=O)(=O)c1ccc(Cl)cc1
1.3 | i | CC(C)C(=O)Nc1ccc2c(c1)C(=O)Nc1ccccc1O2
-0.22 | i | CCOC(=O)c1c(S(=O)(=O)N2CCC(C(=O)Nc3ccc(F)c(F)c3)CC2)c(C)n(C)c1C
-0.88 | i | O=C(CSc1nnc2ccc(C(=O)Nc3cccc(F)c3)cn12)Nc1cccc(Br)c1
-1.5 | i | CC(C)(C)C(=O)Nc1nc(-c2ccccc2)cc(-c2ccccc2)n1
0.69 | i | Cc1cccc(C(=O)Nc2ccccc2SCc2nnc(-c3ccccc3)o2)c1
-1.5 | i | Cc1nn(-c2nc3ccc(Br)cc3s2)c2c1C(c1ccc(F)cc1Cl)CC(=O)N2 (stereo unspecified)
-0.63 | i | CC(C)C(=O)N1CCC2(CC1)Nc1ccc(Cl)cc1-n1cccc12
0.57 | i | CC1CCN(C(=O)CC#N)CC1N(C)c1ncnc2[nH]ccc12 (stereo unspecified)
0.81 | i | O=C(NCc1ccc2c(c1)OCO2)c1ccc2ccnc(N3CCN(c4ccccc4)CC3)c2c1

Next part:
Choline anaer gr early | Choline anaer gr | Structure
-0.21 | i | CC(C)n1c(=O)c(=O)[nH]c2cc(-c3noc(Cc4ccccc4Br)n3)ccc21
0.8 | i | CCCCC(C)(C)[C@H](O)/C=C/[C@H]1CCC(=O)[C@@H]1C/C=C\CCCC(=O)O
0.37 | i | CCOc1ccccc1NC(=O)c1[nH]c(C)c(S(=O)(=O)N2CCCC2)c1C
-0.41 | i | CC(=O)Nc1cccc(C(=O)N(CCC(=O)N2CCNCC2)C(C)C)c1
-2.2 | i | CCc1cc(C2CCCN2S(=O)(=O)c2ccc(C)cc2)on1 (stereo unspecified)
0.26 | i | Cn1c(=O)n(C)c2cc(SC3CCCCC3)c(NS(=O)(=O)c3cccc4nsnc34)cc21
-0.27 | i | Cc1nn(CCC(=O)N2CCC(N3CCCCC3)CC2)c(=O)c2noc(C)c12
-0.02 | i | COc1ccc(NC(=O)C2CCCN(c3nc4ccccc4nc3C(F)(F)F)C2)cc1OC (stereo unspecified)
0.73 | i | Cc1ccc(-n2c(=O)c3ccccc3n(Cc3nc(-c4ccc5c(c4)OCO5)no3)c2=O)cc1C
0.86 | i | O=C(C1Nc2ccccc2S(=O)(=O)N1)N1CCN(c2cccc(Cl)c2)CC1 (stereo unspecified)

Next structures follow:
Choline anaer gr early | Choline anaer gr | Structure
1.4 | i | Cc1ccc(-n2nnc(C(=O)Nc3ccc(S(N)(=O)=O)cc3)c2C)cc1Cl
1.2 | i | Cc1ccc(-c2nc(C3CCN(C(=O)C4CC(=O)N(c5ccc(C)c(C)c5)C4)CC3)no2)cc1 (stereo unspecified)
-0.27 | i | COc1cccc2c(-c3ccccc3)nc(SCC(=O)Nc3ncc(C)s3)nc12
-1.2 | i | Cc1ccccc1CC(=O)N1CCC(COc2ccc(C(=O)N3CCCCC3)cc2)CC1
-0.74 | i | CCCCNC(=O)CCn1cnc2oc(C)c(C)c2c1=O
0.69 | i | CCOc1ccc(-n2c(=O)[nH]cc(C(=O)Nc3ccc(S(N)(=O)=O)cc3)c2=O)cc1
-0.03 | i | Cc1occc1-c1nnc(SCC(=O)NC2CCCC2)o1
0.66&0.78 | i | NC1CONC1=O (stereo unspecified)
0.17 | i | O=C(Nc1cccc(-c2noc(C3CC3)n2)c1)c1cncc(Br)c1
0.27 | i | CCOc1ccccc1NC(=O)Nc1ccc(Cn2cnc(-c3nc(-c4ccc(Cl)cc4)no3)c2)cc1

Other results follow:
Choline anaer gr early | Choline anaer gr | Structure
-0.04 | i | Cn1cnc2c(C(=O)N3CCC(N4CCCCC4)CC3)nn(-c3ccccc3)c2c1=O
0.36 | i | COc1ccc(NC(=O)C2CCCN2S(=O)(=O)c2ccc3c(c2)CCCC(=O)N3)cc1OC (stereo unspecified)
-0.21 | i | COc1ccc(C2NC(C(=O)O)CS2)c(OC)c1 (stereo unspecified)
-0.31 | i | O=S(=O)(c1cccc2nsnc12)N1CCN(c2nc3ccccc3nc2C(F)(F)F)CC1
-2.7 | i | CN(C)CCNCc1ccc(-c2cc(Cl)cc(Cl)c2)o1
-0.89 | i | COc1cc(Cl)c(NC(=O)c2cc(-c3cccnc3)on2)c(OC)c1
-0.05 | i | Cc1nc(-c2cccc(NC(=O)c3cncc(Br)c3)c2)no1
-0.65 | i | Cc1[nH]c(C)c(S(=O)(=O)NCCC(=O)Nc2nccs2)c1C(=O)N1CCCC1
-1.9 | i | Cc1onc(-c2ccccc2Cl)c1C(=O)Nc1cccc(-c2cn3cccnc3n2)c1
-0.55 | i | Cc1cc2c(cc1C)N(CC(=O)NC1CCc3ccccc31)C(=O)C1CCCC1=N2 (stereo unspecified)

Continued.
Choline anaer gr early | Choline anaer gr | Structure
0.19 | i | CCN(C(=O)CSc1nc(-c2ccccc2)nc2cc(=O)[nH]n12)c1cccc(C)c1
-0.21 | i | CCOC(=O)c1c(S(=O)(=O)NCCN2CCc3ccccc3C2)c(C)n(C)c1C
0.17 | i | CCN(CC)CCOC(=O)C(c1ccccc1)C1CCCCC1 (stereo unspecified)
-0.6 | i | CC1CCN(C(=O)CSc2nnc(NC(=O)NC3CCCCC3)s2)CC1
0.89 | i | Cc1ccc(-c2cc(C(=O)N3CCN(c4ccc(N5CCOCC5)nn4)CC3)[nH]n2)cc1C
0.01* | + | Oc1ccc(C2NCCc3c2[nH]c2ccc(Cl)cc32)cc1 (stereo unspecified)
0.28 | i | CCOC(=O)c1nc(Nc2ccc(F)c(F)c2)c2c(CC)noc2n1
0.24&0.32&0.75&0.28 | i | CC#C[C@]1(O)CC[C@H]2[C@@H]3CCC4=CC(=O)CCC4=C3[C@@H](c3ccc(N(C)C)cc3)C[C@@]21C
-0.63 | i | CCc1cccc(NC(=O)C2CCN(S(=O)(=O)c3ccc4c(c3)CC(C)N4C(C)=O)CC2)c1 (stereo unspecified)
3 | i | CCCCN1C=C(OC(=O)c2ccccc2Cl)c2ccccc2S1(=O)=O

Other records follow.
Choline anaer gr early | Choline anaer gr | Structure
-0.16 | i | O=C(CC1CCN(S(=O)(=O)c2ccc(Cl)cc2)CC1)NCCN1CCOCC1
-0.41 | i | CCCNC(=O)C1CCCN(c2ncc(-c3ccc(F)cc3)cn2)C1 (stereo unspecified)
-1.8 | i | CCOC(=O)c1ccc(NC(=O)C2CCN(c3nccc4sc(C)cc34)CC2)cc1
-0.14 | i | CCCCC(=O)Nc1ccc2c(c1)nc1n2CCN(C(C)C)C1
0.72 | i | COC(=O)c1sccc1NC(=O)Nc1ccc2nc(N3CCOCC3)cc(C)c2c1
-1.2 | i | c1cncc(CN2CCN(c3ncnc4c3CCC4)CC2)c1
-0.96 | i | O=c1[nH]c2ccc(S(=O)(=O)NCc3cccn3Cc3ccccc3)cc2o1
-0.43 | i | Cc1noc2ncnc(N3CCC(c4ccccc4)C3)c12 (stereo unspecified)
-0.88 | i | O=C1c2cccnc2C(=O)N1Cc1ccc(F)cc1S(=O)(=O)N1CCN(C2CCCCC2)CC1
1.1&0.69 | i | O=C(O)C1=CCCN(CCON=C(c2ccccc2)c2ccccc2)C1

Further entries.
Choline anaer gr early | Choline anaer gr | Structure
-1.3 | i | O=C(CCn1c(=O)sc2cc(S(=O)(=O)N3CCCC3)ccc21)N1CCc2ccccc21
1.7 | i | CCNC(=O)COc1ccccc1-c1nc(-c2ccccc2)no1
-0.22 | i | Cc1cc(N2CCCCC2)nc2ccc(NC(=O)CCC(=O)N3CCC(Cc4ccccc4)CC3)cc12
-0.48 | i | CCn1c(CCc2ccccc2NS(=O)(=O)c2c(C)n[nH]c2C)nc2ccccc21
0.47 | i | CCCc1nnc(NC(=O)CSc2nnc(-c3cc4ccccc4o3)n2C)s1
1.1 | i | CCn1c(=O)n(CC)c2cc(N3CCCCC3)c(NC(=O)Nc3cc(Cl)ccc3OC)cc21
0.08 | i | CCOC(=O)c1cnc(SCC(=O)Nc2cccc(C)c2)nc1N
-0.13 | i | O=C(NCCCc1ccccc1)C1CCCN(c2nn3c(=O)c4c(nc3s2)CCCC4)C1 (stereo unspecified)
-1.7 | i | Cc1ccc2cc3c(nc2c1)N(S(=O)(=O)c1ccc(F)c(C)c1)CC3
-1.3 | i | CC(C)n1c(N2CCCN(C(=O)CC3CCCCC3)CC2)cc(=O)n(C(C)C)c1=O

Continuation.
Choline anaer gr early | Choline anaer gr | Structure
-0.55 | i | COc1ccc(C2C=C(c3ccc(Br)cc3)Nc3c(C(=O)Nc4ccccc4)cnn32)cc1 (stereo unspecified)
0.13 | i | CC(=O)Nc1nsc(N2CCC(C(=O)NCc3cccs3)CC2)n1
0.48 | i | O=c1[nH]c2ccccc2cc1CN(C1CCCCC1)S(=O)(=O)c1ccccc1
-0.4 | i | CC1CCN(S(=O)(=O)c2ccc(-c3cnc(C4CCCC4)o3)s2)CC1
0.28 | i | CC1(C)C(=O)N(CC(=O)Nc2ccc3c(c2)OCCO3)c2ccccc21
0.07 | i | CCN(CCCNC(=O)CCc1nnc2n(Cc3ccccc3)c(=O)c3ccccc3n12)c1cccc(C)c1
-0.7 | i | O=C(c1ccc(CSc2nc3ccncc3n2Cc2ccc(F)cc2)cc1)N1CCc2ccccc2C1
1.1 | i | O=C(Cn1cc(-c2nc(-c3ccc(Cl)cc3)no2)ccc1=O)NC1CCCC1
0.58 | i | O=c1ccn(-c2cccc(F)c2)nc1-c1nc(-c2ccccc2)no1
0.53 | i | CC(C)C(=O)NCCc1csc(-c2ccccc2)n1

Next part.
Choline anaer gr early | Choline anaer gr | Structure
-1.1 | i | O=C(Nc1ccc(F)cc1)C1CCCN(c2ccc3cc(S(=O)(=O)N4CCCC4)ccc3n2)C1 (stereo unspecified)
-0.8 | i | CCc1ccc(NC(=O)NCCc2nc3cccnc3n2Cc2ccccc2)cc1
0.42 | i | O=C(Nc1nccs1)c1cc(-c2ccccc2)on1
1.6 | i | Cc1ccc(-n2ccc(=O)c(-c3nc(-c4ccccc4C)no3)n2)cc1C
0.61 | i | COC(=O)c1nnc2c(-c3ccccc3)c(C)nn2c1C
0.7 | i | Cn1cc(C(CNC(=O)Nc2cccc(Cl)c2)c2cccnc2)c2ccccc21 (stereo unspecified)
0.7&0.3 | i | CNC(=O)[C@H]1O[C@@H](n2cnc3c(NCc4cccc(I)c4)ncnc32)C(O)[C@H]1O (stereo partly specified)
0.41 | i | COc1ccc(S(=O)(=O)Cc2nc(-c3ccc(OC)c(OC)c3)no2)cc1
-1.1 | i | NS(=O)(=O)c1ccc(NC(=O)c2ccc(-n3nnc4cccnc43)cc2)cc1
-0.92 | i | c1ccc(-c2noc(NCc3ccc4c(c3)OCO4)n2)cc1

Fetched by compound from the entries so far, four records:
Choline anaer gr early | Choline anaer gr | Structure
-0.8 | i | CCc1ccc(NC(=O)NCCc2nc3cccnc3n2Cc2ccccc2)cc1
0.41 | i | COc1ccc(S(=O)(=O)Cc2nc(-c3ccc(OC)c(OC)c3)no2)cc1
-1.1 | i | O=C(Nc1ccc(F)cc1)C1CCCN(c2ccc3cc(S(=O)(=O)N4CCCC4)ccc3n2)C1 (stereo unspecified)
0.7 | i | Cn1cc(C(CNC(=O)Nc2cccc(Cl)c2)c2cccnc2)c2ccccc21 (stereo unspecified)

The list continues:
Choline anaer gr early | Choline anaer gr | Structure
-1.4 | i | Cc1nc(-c2cc(NC(=O)c3ccccn3)c(C)s2)no1
-0.64 | i | Cc1nc2ncccc2c(=O)n1-c1cccc(NC(=O)c2cccc(Cl)c2)c1
-0.57 | i | CCOC(=O)CSc1nnc2n1CCN2c1ccccc1
2 | i | COc1ccc(C(=O)Nc2ccc3nc(NC(=O)c4ccccc4)sc3c2)c(OC)c1
1.9 | i | COc1ccc(Cl)cc1NC(=O)c1cc2c(=O)oc3ccccc3c2n1C
0.82 | i | Cc1c(S(=O)(=O)NCc2ccc3c(c2)CCN3C(=O)c2ccccc2)cnn1C(F)F
0.97 | i | COc1ccc(-c2nn(-c3ccccc3)cc2C2CC(c3ccccc3)=NN2S(C)(=O)=O)cc1 (stereo unspecified)
0.26 | i | COc1ccc(N2C(=O)C3N=NN(CC(=O)Nc4ccccc4Br)C3C2=O)cc1OC (stereo unspecified)
-0.27 | i | Cc1cc(N2CCN(C3CCCCC3)CC2)n2ncc(-c3ccc(F)cc3)c2n1
-0.71 | i | CCOc1ccc(CCNC(=O)Cn2ncc3ccccc32)cc1OCC

More structures
Choline anaer gr early | Choline anaer gr | Structure
0.15 | i | CCC(C(=O)NCc1ccc(F)cc1)N1CCN(Cc2ccc(F)cc2)C(=O)C1=O (stereo unspecified)
0.22 | i | Cc1ccc(-c2noc(-c3cn(Cc4ccc(NS(=O)(=O)c5cc(C)ccc5C)cc4)cn3)n2)cc1
-0.21 | i | CC1CCN(C(=O)c2cccc(-c3cc(NC4CCCCC4)ncn3)c2)CC1
0.11 | i | CCn1c(SCC(=O)N2CCCc3ccccc32)nc(=O)c2c(C(=O)OC)cc(C)nc21
-1.6 | i | O=C(CCc1nc(-c2ccccc2)no1)Nc1cccnc1
-1.5 | i | CCOC(=O)c1nc2ccccc2nc1NCc1ccccn1
0.44 | i | CCc1cccc(C)c1NC(=O)CSc1nc2ccccc2n2cnnc12
0.73 | i | Cc1ccc(CNS(=O)(=O)c2c(C)sc(C)c2-c2cc(C(F)(F)F)on2)o1
-0.64 | i | Cc1nn(CC(=O)NCCc2ccc(S(N)(=O)=O)cc2)c(=O)c2cc3sccc3n12
0.03 | i | CCn1c(C)ccc(-c2noc(CCC(=O)Nc3nc(C)cs3)n2)c1=O

An excerpt, so the mix of outcomes need not match the whole.
